# Screening data from PubChem.
# Yeast UUG start – modulators of yeast start codon fidelity, primary screen, whole organism, S. cerevisiae, single point, plate reader; actives 0.13% (n = 350,000); activity score, % at 18.7 µM; S. cerevisiae UUG-firefly luciferase reporter, luminescence/redox ratio;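 active = replicate mean at a twofold rise or more, about +100% in these data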;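 also: firefly luciferase made from a UUG start codon reports start codon fidelity; reporter light over untreated wells divided by growth signal over untreated wells; some hits fall short of that in this replicate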
# Env fusion inh – inhibitors of HIV-1 Env-driven cell-cell fusion, primary screen, HeLa-JRFL effector, CEM21 target cells, luciferase; inhibition, % at 12.3 µM; actives 1.1% (n = 360,000);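 active = mean replicate inhibition score of at least 50 and every replicate individually at or above 50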;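 also: 0% = plate neutral controls and 100% = maraviroc near 300 nM; one replicate is shown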
# An asterisk follows results filed as active; [ ] = dose if it differs, or a comment. The list is partial. The share of hits here may be higher or lower than overall.
SMILES,Yeast UUG start,Env fusion inh
O=C(N[C@@H]1CC[C@@H](CCNC(=O)c2ccccc2F)O[C@H]1CO)c1ccc2c(c1)OCO2,-5,1[16.7 µM]
COc1ccccc1NC(=O)N[C@@H]1CC[C@@H](CCn2cc(-c3ccccc3OC)nn2)O[C@H]1CO,-3,21[16.7 µM]
CC(C)NC(=O)N(C)C[C@@H]1Oc2ccc(NC(=O)CCCCCC(=O)Nc3ccccc3N)cc2CC(=O)N([C@H](C)CO)C[C@@H]1C,0,20[16.7 µM]
COc1ccc(S(=O)(=O)Nc2ccc3c(c2)CC(=O)N([C@H](C)CO)C[C@H](C)[C@@H](CN(C)S(C)(=O)=O)O3)cc1,-3,-13[16.7 µM]
Cc1noc(C)c1S(=O)(=O)Nc1ccc2c(c1)C(=O)N([C@H](C)CO)C[C@H](C)[C@@H](CN(C)S(=O)(=O)c1ccc(F)cc1)OCCCC[C@H](C)O2,83,4[16.7 µM]
C[C@@H]1CN([C@@H](C)CO)C(=O)c2cc(-c3ccccc3F)cnc2O[C@H]1CN(C)C(=O)C1CCOCC1,14,-18[16.7 µM]
O=C(C[C@@H]1C=C[C@H](NC(=O)Nc2ccccc2)[C@H](CO)O1)NCc1cccc(F)c1,-17,16[16.7 µM]
COc1ccc(CN(C)C[C@H]2OCCCC[C@@H](C)Oc3ccc(NS(=O)(=O)c4ccc(OC)cc4)cc3C(=O)N([C@@H](C)CO)C[C@H]2C)cc1,8,-5[16.7 µM]
C[C@@H]1CN([C@H](C)CO)C(=O)c2cc(NC(=O)CCCN(C)C)ccc2O[C@H]1CN(C)CC1CCCCC1,8,-23[16.7 µM]
CN1C(=O)c2cc(NC(=O)c3ccc(F)c(F)c3)ccc2OC[C@@H]2O[C@@H](CC(=O)N3CCCCC3)CC[C@H]21,4,1[16.7 µM]
O=C(CN1CCOCC1)NCC[C@@H]1CC[C@H](NC(=O)Nc2ccc(Cl)cc2)[C@@H](CO)O1,119*,-23[16.7 µM]
Cc1noc(C)c1S(=O)(=O)Nc1ccc2c(c1)C(=O)N([C@@H](C)CO)C[C@H](C)[C@@H](CN(C)Cc1ccccc1)OCCCC[C@H](C)O2,3,-13[16.7 µM]
c1ccc(Cc2c(-c3ccccc3)nc3c4ccccc4ccn23)cc1,18,-17
C[C@H](CO)N1C[C@H](C)[C@H](CN(C)Cc2ccccc2)Oc2ccc(NS(=O)(=O)c3cccs3)cc2CC1=O,4,-20[16.7 µM]
C[C@H](CO)N1C[C@H](C)[C@H](CN(C)Cc2ccc(C(F)(F)F)cc2)Oc2ccc(NC(=O)Nc3cccc4ccccc34)cc2CC1=O,-3,8[16.7 µM]
CC(C)NC(=O)N(C)C[C@H]1Oc2ccc(N(C)C)cc2C(=O)N([C@H](C)CO)C[C@@H]1C,7,19[16.7 µM]
CN1C(=O)c2cc(NC(=O)c3ccc(F)c(F)c3)ccc2OC[C@H]2O[C@@H](CC(=O)N3CCCCC3)CC[C@H]21,14,46[16.7 µM]
C[C@H]1CN([C@@H](C)CO)C(=O)c2cccc(NC(=O)c3cnccn3)c2O[C@@H]1CN(C)S(=O)(=O)c1cccs1,-7,-9[16.7 µM]
CC(C)NC(=O)Nc1ccc2c(c1)C(=O)N([C@H](C)CO)C[C@H](C)[C@@H](CN(C)Cc1ccc(Cl)c(Cl)c1)O2,-18,-6[16.7 µM]
COc1ccc(NC(=O)Nc2ccc3c(c2)C(=O)N([C@@H](C)CO)C[C@H](C)[C@H](CN(C)CC2CCCCC2)OCCCC[C@H](C)O3)cc1,1,55*[16.7 µM]
C[C@H](CO)N1C[C@H](C)[C@@H](CN(C)C(=O)c2ccc3c(c2)OCO3)Oc2ncc(/C=C/c3ccccc3)cc2C1=O,8,19[16.7 µM]
CCCN1C[C@H](C)[C@H](OC)CN(C)C(=O)c2ccc(NC(=O)Nc3c(C)noc3C)cc2OC[C@@H]1C,4,16[16.7 µM]
O=C(C[C@@H]1C=C[C@@H](NC(=O)C2CCOCC2)[C@@H](CO)O1)NCc1ccncc1,-13,-5[16.7 µM]
COc1ccc(NC(=O)N(C)C[C@@H]2Oc3ncc(Br)cc3C(=O)N([C@H](C)CO)C[C@@H]2C)cc1,-6,-20[16.7 µM]
Cc1noc(C)c1S(=O)(=O)Nc1ccc2c(c1)CC(=O)N([C@@H](C)CO)C[C@H](C)[C@H](CN(C)C(=O)Nc1cccc3ccccc13)O2,8,6[16.7 µM]
COc1ccc(S(=O)(=O)N(C)C[C@H]2Oc3c(NC(=O)Nc4ccc5c(c4)OCO5)cccc3C(=O)N([C@@H](C)CO)C[C@@H]2C)cc1,3,-28[16.7 µM]
C[C@@H]1CN([C@H](C)CO)C(=O)c2cc(Br)cnc2O[C@@H]1CN(C)CC1CCCC1,-4,-6[16.7 µM]
Cc1noc(C)c1NC(=O)Nc1cccc2c1O[C@@H](CN(C)S(=O)(=O)c1ccc(Cl)cc1)[C@@H](C)CN([C@@H](C)CO)C2=O,2,-38[16.7 µM]
O=C(C[C@@H]1C[C@H]2c3cc(NC(=O)C4CCC4)ccc3O[C@H]2[C@@H](CO)O1)NCC(F)(F)F,-4,-16[16.7 µM]
COc1ccc(S(=O)(=O)N(C)C[C@H]2OCCCC[C@H](C)Oc3ccc(NC(=O)NC(C)C)cc3C(=O)N([C@@H](C)CO)C[C@@H]2C)cc1,6,-15[16.7 µM]
CCC(=O)Nc1ccc2c(c1)C(=O)N(C)[C@H]1CC[C@@H](CC(=O)NCCN3CCCCC3)O[C@@H]1CO2,-6,-13[16.7 µM]
COCCNC(=O)C[C@@H]1CC[C@@H]2[C@@H](COc3ccc(NC(=O)C4CCCC4)cc3C(=O)N2C)O1,8,-16[16.7 µM]
C[C@@H]1CN([C@H](C)CO)S(=O)(=O)c2ccc(C3=CCCC3)cc2O[C@@H]1CN(C)Cc1cccc(C(=O)O)c1,6,-3[16.7 µM]
C[C@@H]1CN([C@H](C)CO)C(=O)c2cc(NC(=O)CCCN(C)C)ccc2O[C@@H](C)CCCCO[C@H]1CN(C)C(=O)Nc1cccc2ccccc12,12,11[16.7 µM]
C[C@H]1CN([C@@H](C)CO)C(=O)Cc2cc(N(C)C)ccc2O[C@@H]1CN(C)Cc1ccc(Cl)c(Cl)c1,34,54[16.7 µM]
CCCN(C)C[C@H]1Oc2cc(C#Cc3cccc(F)c3)ccc2S(=O)(=O)N([C@H](C)CO)C[C@H]1C,6,-33[16.7 µM]
CO[C@@H]1CN(C)C(=O)c2cc(NC(=O)c3ccccc3F)ccc2OC[C@H](C)N(C)C[C@@H]1C,-13,-3[16.7 µM]
C[C@@H]1CCCCO[C@H](CN(C)C(=O)c2ccncc2)[C@H](C)CN([C@H](C)CO)C(=O)c2cc(NS(C)(=O)=O)ccc2O1,-10,-6[16.7 µM]
C[C@H](CO)N1C[C@H](C)[C@@H](CN(C)C(=O)Nc2ccc(F)cc2)Oc2ncc(-c3cccnc3)cc2C1=O,6,13[16.7 µM]
C[C@H]1CN([C@@H](C)CO)C(=O)c2cccc(NC(=O)c3ccc(-c4nccs4)cc3)c2O[C@H]1CN(C)S(C)(=O)=O,-1,-19[16.7 µM]
CO[C@H]1CN(C)C(=O)c2ccc(NC(=O)c3ccc(Oc4ccccc4)cc3)cc2OC[C@H](C)NC[C@H]1C,-5,14[16.7 µM]
O=C(N[C@H]1CC[C@H](CCn2cc(C3(O)CCCC3)nn2)O[C@@H]1CO)c1ccccc1F,-11,8[16.7 µM]
COc1ccc(NC(=O)N(C)C[C@H]2OCCCC[C@H](C)Oc3ccc(NC(=O)c4ccncc4)cc3C(=O)N([C@H](C)CO)C[C@@H]2C)cc1,9,-10[16.7 µM]
Cc1noc(C)c1NC(=O)NCC[C@H]1CC[C@H](NC(=O)Nc2cccc(Cl)c2)[C@@H](CO)O1,2,6[16.7 µM]
O=C(NCC[C@@H]1CC[C@@H](NS(=O)(=O)Cc2ccccc2)[C@H](CO)O1)C1CCCCC1,10,6[16.7 µM]
CC(=O)N(C)C[C@@H]1Oc2cc(C#Cc3ccccc3F)ccc2S(=O)(=O)N([C@H](C)CO)C[C@@H]1C,1,10[16.7 µM]
C[C@H](CO)N1C[C@H](C)[C@H](CN(C)C(=O)C2CC2)Oc2cc(C#Cc3ccccc3)ccc2S1(=O)=O,-28,45[16.7 µM]
C[C@@H]1CN([C@H](C)CO)C(=O)c2cc(C#Cc3ccncc3)cnc2O[C@H]1CN(C)CC1CCOCC1,-3,3[16.7 µM]
CC(C)NC(=O)N(C)C[C@@H]1Oc2ccc(NC(=O)Cn3cnnn3)cc2C(=O)N([C@H](C)CO)C[C@H]1C,-4,-9[16.7 µM]
O=C(C[C@@H]1CC[C@@H](NC(=O)c2ccncc2)[C@@H](CO)O1)NCCc1ccncc1,-5,6[16.7 µM]
COc1ccc(NC(=O)Nc2ccc3c(c2)CC(=O)N([C@H](C)CO)C[C@H](C)[C@@H](CN(C)Cc2ccc(C(F)(F)F)cc2)O3)cc1,34,5[16.7 µM]
O=C(N[C@@H]1CC[C@H](CC(=O)N2CCOCC2)O[C@H]1CO)c1ccc2c(c1)OCO2,-13,-6[16.7 µM]
C[C@@H](NC(=O)C[C@@H]1CC[C@@H](NC(=O)C2CCC2)[C@H](CO)O1)c1ccccc1,-15,-5[16.7 µM]
O=C(Nc1ccccc1)N[C@@H]1CC[C@H](CCn2cc(C3(O)CCCC3)nn2)O[C@@H]1CO,11,2[16.7 µM]
C[C@@H]1CCCCO[C@@H](CN(C)Cc2ccncc2)[C@H](C)CN([C@H](C)CO)C(=O)c2cc(NC(=O)NC3CCCCC3)ccc2O1,6,10[16.7 µM]
C[C@H](CO)N1C[C@H](C)[C@@H](CN(C)C(=O)Nc2ccc(C(F)(F)F)cc2)Oc2ccc(NC(=O)c3ccncc3)cc2CC1=O,5,-19[16.7 µM]
Cc1ccc(S(=O)(=O)Nc2ccc3c(c2)C(=O)N([C@@H](C)CO)C[C@H](C)[C@@H](CN(C)S(=O)(=O)c2ccc(F)cc2)OCCCC[C@H](C)O3)cc1,29,-13[16.7 µM]
Cc1ccc(S(=O)(=O)N[C@@H]2CC[C@@H](CCn3cc(C4(O)CCCC4)nn3)O[C@H]2CO)cc1,-21,-11[16.7 µM]
Cc1noc(C)c1NC(=O)Nc1ccc2c(c1)C(=O)N([C@@H](C)CO)C[C@H](C)[C@@H](CN(C)C(=O)Nc1ccccc1)O2,-13,16[16.7 µM]
COc1ccc(-c2ccc3c(c2)O[C@@H](CN(C)CC2CCOCC2)[C@H](C)CN([C@@H](C)CO)S3(=O)=O)cc1,28,10[16.7 µM]

# Next part.
SMILES,Yeast UUG start,Env fusion inh
COc1ccc(NC(=O)Nc2ccc3c(c2)C(=O)N([C@H](C)CO)C[C@H](C)[C@@H](CN(C)C(=O)Cc2ccccc2)OCCCC[C@@H](C)O3)cc1,7,2[16.7 µM]
C[C@@H]1CCCCO[C@H](CN(C)S(=O)(=O)c2cn(C)cn2)[C@@H](C)CN([C@H](C)CO)C(=O)c2cc(NS(=O)(=O)c3ccccc3)ccc2O1,-1,23[16.7 µM]
Cc1noc(C)c1NC(=O)Nc1cccc2c1O[C@@H](CN(C)Cc1ccc(Cl)c(Cl)c1)[C@@H](C)CN([C@H](C)CO)C2=O,-17,-68[16.7 µM]
CC(C)NC(=O)Nc1ccc2c(c1)C(=O)N([C@H](C)CO)C[C@H](C)[C@H](CN(C)C(=O)c1ccccc1)OCCCC[C@@H](C)O2,16,6[16.7 µM]
C[C@H](CO)N1C[C@H](C)[C@H](CN(C)S(C)(=O)=O)Oc2ncc(C#Cc3cccnc3)cc2C1=O,0,10[16.7 µM]
C/C=C/c1cnc2c(c1)C(=O)N([C@@H](C)CO)C[C@H](C)[C@@H](CN(C)Cc1ccncc1)O2,-7,-11[16.7 µM]
COC(=O)C[C@H]1C[C@@H]2c3cc(NC(=O)C4CCC4)ccc3O[C@@H]2[C@@H](CO)O1,-14,2[16.7 µM]
CO[C@@H]1CN(C)C(=O)c2cc(NS(=O)(=O)c3ccccc3)ccc2OC[C@@H](C)N(Cc2ccccn2)C[C@@H]1C,-16,10[16.7 µM]
C[C@@H]1CN([C@@H](C)CO)C(=O)c2cc(C#Cc3ccccc3F)cnc2O[C@H]1CN(C)C(=O)Cc1ccncc1,8,10[16.7 µM]
C[C@@H]1CN([C@@H](C)CO)C(=O)c2cc(NS(=O)(=O)c3ccc(Cl)cc3)ccc2O[C@H]1CN(C)S(=O)(=O)c1cccs1,-3,-8[16.7 µM]

# Compound profiles, from the list above.
# CC(C)NC(=O)Nc1ccc2c(c1)C(=O)N([C@H](C)CO)C[C@H](C)[C@H](CN(C)C(=O)c1ccccc1)OCCCC[C@@H](C)O2 is entered as Yeast UUG start: 16; Env fusion inh: 6[16.7 µM]
# C[C@@H]1CN([C@@H](C)CO)C(=O)c2cc(NS(=O)(=O)c3ccc(Cl)cc3)ccc2O[C@H]1CN(C)S(=O)(=O)c1cccs1 is entered as Yeast UUG start: -3; Env fusion inh: -8[16.7 µM]

# Of the compounds above, 3 contain a thiophene ring, fused or not.
SMILES,Yeast UUG start,Env fusion inh
C[C@H](CO)N1C[C@H](C)[C@H](CN(C)Cc2ccccc2)Oc2ccc(NS(=O)(=O)c3cccs3)cc2CC1=O,4,-20[16.7 µM]
C[C@H]1CN([C@@H](C)CO)C(=O)c2cccc(NC(=O)c3cnccn3)c2O[C@@H]1CN(C)S(=O)(=O)c1cccs1,-7,-9[16.7 µM]
C[C@@H]1CN([C@@H](C)CO)C(=O)c2cc(NS(=O)(=O)c3ccc(Cl)cc3)ccc2O[C@H]1CN(C)S(=O)(=O)c1cccs1,-3,-8[16.7 µM]
